High-throughput results as filed in PubChem BioAssay.
KCNQ2 block: KCNQ2 potassium channel inhibitors, primary screen, cell-based, CHO-K1, FluxOR thallium flux, B-score (AID 2156). 310,000 tested, 1.1% active. B-score at 10 µM. 20 min; stronger effect = lower value; only compounds with negative scores are shown here; some inactives read as strong as hits. Potassium voltage-gated channel subfamily KQT member 2 (Rattus norvegicus), O88943;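 active = fluorescence ratio B-score at most minus 3 library SDs, with starting brightness B-score within 2 library SDs, cut at about -5.5 in these data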
Target sequence (O88943 whole entry, looked up): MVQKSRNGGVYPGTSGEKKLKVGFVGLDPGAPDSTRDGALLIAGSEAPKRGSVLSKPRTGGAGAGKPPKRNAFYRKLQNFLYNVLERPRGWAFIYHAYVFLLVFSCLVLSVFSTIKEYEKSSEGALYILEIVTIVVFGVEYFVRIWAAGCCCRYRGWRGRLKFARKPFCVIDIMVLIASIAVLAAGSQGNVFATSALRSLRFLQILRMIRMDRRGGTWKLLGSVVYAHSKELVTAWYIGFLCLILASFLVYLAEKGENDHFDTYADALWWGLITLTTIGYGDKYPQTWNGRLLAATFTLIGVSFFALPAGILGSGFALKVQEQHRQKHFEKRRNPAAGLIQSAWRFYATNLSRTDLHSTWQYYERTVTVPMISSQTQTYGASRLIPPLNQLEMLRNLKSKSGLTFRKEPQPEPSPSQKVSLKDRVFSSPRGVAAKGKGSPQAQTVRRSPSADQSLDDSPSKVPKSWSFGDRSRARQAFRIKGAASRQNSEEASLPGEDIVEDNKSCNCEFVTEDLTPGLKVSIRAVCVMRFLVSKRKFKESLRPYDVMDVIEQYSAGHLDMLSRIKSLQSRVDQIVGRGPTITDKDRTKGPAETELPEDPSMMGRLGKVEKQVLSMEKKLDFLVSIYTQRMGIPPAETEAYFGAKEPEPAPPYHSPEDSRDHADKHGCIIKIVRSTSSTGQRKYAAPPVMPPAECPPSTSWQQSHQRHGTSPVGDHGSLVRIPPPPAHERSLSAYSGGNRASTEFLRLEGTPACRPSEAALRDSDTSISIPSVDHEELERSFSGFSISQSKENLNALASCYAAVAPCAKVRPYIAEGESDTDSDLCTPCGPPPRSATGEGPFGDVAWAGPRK
KCNQ2 block baseline: second read-out of KCNQ2 block, no call of its own (marks repeat the call); B-score; measured here: initial fluorescence intensity artifact check;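 brightness before thallium and not channel activity; 0 = typical well and far values either way flag optical interference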
Numbers without * were called inactive; i = inactive.

KCNQ2 block	KCNQ2 block baseline	structure
i	-0.84	CCOc1ccc(NC(=O)C(C)N2C(=O)c3ccccc3C2=O)cc1 (stereo not given)
i	0.42	COc1ccc(OCC(=O)NC2CCCc3ccccc32)cc1 (stereo not given)
i	1.51	O=C(Cn1nnc(-c2ccccc2F)n1)Nc1ccc2c(c1)OCO2
i	2.4	Cc1cccc(/N=C/c2c(O)c3ccccc3oc2=O)n1
i	1.87	CCN1CCN(Cc2nnc(-c3ccc(C)cc3)o2)CC1
i	-0.93	CC(C)CCN(Cc1ccco1)S(=O)(=O)c1ccc(-c2ccc(=O)[nH]n2)s1
i	-1.14	O=C(NC(=O)c1ccccc1O)c1ccc2c(c1)CCO2
i	-0.07	CC(n1cnnn1)C12CC3CC(CC(C3)C1)C2 (stereo not given)
i	1.38	Cc1c(O)ccc(C(=O)CN2CCN(Cc3ccccc3)CC2)c1O
i	2.24	CCC(C)c1ccc(NC(=O)COC(=O)c2nc3nccc(C)n3n2)cc1 (stereo not given)
i	-0.59	O=C(CN1CCc2ccccc2C1)NCC(=O)Nc1ccc(F)cc1
i	-0.07	O=C(O)CNC(=S)N(Cc1ccccc1)Cc1cccnc1
i	-0.06	CC(=O)Nc1ccc2nc(NC(=O)COc3ccccc3Cl)sc2c1
i	0.66	C[C@H](NCc1c[nH]c2ccccc12)c1ccccc1
i	0.63	CCC(c1nnc(SCC(=O)NCC2CCCO2)n1Cc1ccccc1)N(C)C (stereo not given)
i	1.55	NC(=O)NCc1ccccc1F
i	0.53	COc1cc(NC(=O)c2ccc3c(c2)OCCO3)ccc1NC(=O)c1cccs1
i	1.15	COC(=O)c1sccc1OCc1cccc(OC)c1
i	1.29	O=C(Cc1ccc([N+](=O)[O-])cc1)Nc1nnc(C2CC2)s1
i	-0.28	CC1=CC(c2ccccc2)n2nc(NC(=O)CCCC(=O)O)nc2N1 (stereo not given)
i	-0.92	Nc1c(C(=O)O)sc2nc(-c3ccccc3)cc(-c3ccc(F)cc3)c12
i	-0.41	CC(C)n1c(N2CCN(C(=O)Nc3ccccc3)CC2)nc2ccccc21
i	2.16	CNC(=O)/C(=C\c1ccc2c(c1)OCO2)NC(=O)c1ccc(Br)cc1
i	-0.84	c1ccc2[nH]c(-c3cscn3)nc2c1
i	1.62	CCN1CCc2c(sc(NC(=O)c3ccc4ccccc4c3)c2C(N)=O)C1
i	0.76	CC1CC(C)CN(CCCNC(=O)Cc2c(C(=O)O)n(C)c3ccccc23)C1 (stereo not given)
i	-0.35	OCCNC(=S)c1ccccc1
i	1.07	CNC(=S)N1N=C(c2ccc(C)cc2)CC1c1cc(OC)ccc1OC (stereo not given)
i	1.11	COc1ccc(C(=O)NCC(=O)N/N=C/c2ccc([N+](=O)[O-])o2)cc1OC
i	-0.65	COc1ccccc1N1CC(C(=O)OCC(=O)c2ccc(F)cc2)CC1=O (stereo not given)
i	0.27	N#CC1=C(N)OC2=C(C(=O)CCC2)C12CCC1(CC2)OCCO1
i	-2	CC1Sc2ccccc2N(CC(=O)N(C(C)C)C(C)C)C1=O (stereo not given)
i	1.53	CCO[C@H]1OC(C(=O)NCc2ccccc2)=C[C@@H](c2ccccc2)[C@@H]1CCCO
i	1	Cn1c(-c2ccccc2)cnc1NCc1ccccc1
i	-0.01	CN1C(=O)C(CC(=O)Nc2ccc3c(c2)Cc2ccccc2-3)N(C)C1=O (stereo not given)
i	-0.99	O=C(NCCCN1CCOCC1)c1cccc(NC(=O)c2ccccc2)c1
i	-1.64	COCCN(C(=S)Nc1ccccc1OC)C1CCN(C(C)C)CC1
i	0.12	COC(=O)NCC(c1ccco1)N1CCN(c2ccc(OC)cc2)CC1 (stereo not given)
i	-0.14	COc1ccc(/C=N/NC(=O)CN(CCc2ccccc2)S(=O)(=O)c2ccc(NC(C)=O)cc2)cc1OC
i	0.25	OC(CNCc1ccc(Cl)cc1)COc1ccccc1 (stereo not given)
i	1.89	C=CCn1c(SCc2nc3scc(-c4ccccc4)c3c(=O)[nH]2)nnc1-c1ccccc1F
i	5.58	COc1ccccc1-c1nnn(CC#N)n1
i	-1.44	CSC[C@H](NC(=O)COc1cc2c(c3oc(=O)cc(C)c13)CCC(C)(C)O2)C(=O)O
i	1.26	Cc1cc(C)c(S(=O)(=O)N2CCC3(CC2)OCCN3S(=O)(=O)c2cccs2)c(C)c1
i	-1	COc1ccc(CNC(=O)CN2C(=O)CSc3ccc(S(=O)(=O)N4CCOCC4)cc32)c(OC)c1
i	0.05	O=C(NC12CC3CC(CC(C3)C1)C2)c1cc(F)c(F)cc1Cl
i	1.85	O=C(O)C1C2C=CC(CC2)C1C(=O)O (stereo not given)
-6.8*	1.22*	C/C(=N\OCC(=O)NC12CC3CC(CC(C3)C1)C2)c1cc2ccccc2o1
i	0.05	O=C(Nc1ccccc1-c1ccccc1)NC1CCN(CC(=O)N2CCOCC2)CC1
i	-1	Cc1ccc2c(c1)N(C(=O)CCC(=O)Nc1ccccc1Br)CC(C)O2 (stereo not given)
i	0.89	CSc1ccc(N2C(=O)NC3(CCCCC3)C2=O)cc1
i	-1.3	O=C(c1ccccc1Sc1cccc2ccccc12)N1CCOCC1
i	0.06	CCCCOc1ccc(C(=O)N2CCCCCC2)cc1
-8.24*	1.01*	O=C(/C=C/c1cccc(C(F)(F)F)c1)Nc1cccc(C(F)(F)F)c1
i	1.34	Cn1c(CSCc2ccc(Cl)cc2Cl)n[nH]c1=S
i	0.01	COc1ccccc1CCC(=O)OCC(=O)Nc1c(Br)cc(C)cc1Br

The listing continues.
KCNQ2 block	KCNQ2 block baseline	structure
i	2.54	Cc1ccc(/C=N/NC(=O)C2=NNC(c3ccccc3)(c3ccccc3)C2)c(O)c1
i	1.47	O=C1CCCC(O)=C1C1NCCc2ccccc21 (stereo not given)
i	-0.22	COc1cccc(CC2(CO)CCCN(Cc3cc(F)ccc3-n3cccn3)C2)c1 (stereo not given)
i	0.08	COc1ccc([N+](=O)[O-])cc1NC(=O)CC1SC(=Nc2cccc(C)c2C)N(/N=C/c2cccc(OC)c2OC)C1=O (stereo not given)
i	-2.14	COc1ccc(-c2nn(-c3ccccc3)cc2/C=C2/SC(=S)N(CCC(=O)O)C2=O)c(C)c1
i	-1.55	O=C(CN1C(=O)C2C3CC(C(Br)C3Br)C2C1=O)Nc1ccc(C(=O)O)cc1 (stereo not given)
i	-0.41	Cc1ccc(C)c(S(=O)(=O)NCCCc2ccccc2)c1
i	0.47	C/C(=N/OC(=O)c1ccc(C)cc1)C(=O)c1ccc(Br)cc1
i	-0.27	Cc1cc(SCC(=O)N/N=C/c2cccnc2)nc2c(C)cccc12
i	0.1	CS(=O)(=O)c1ccc(-c2cccc(NC(=O)c3ccc(Br)o3)c2)nn1
i	-0.14	Cc1cc(-c2csc(NC(=O)c3ccccc3C(F)(F)F)n2)c(C)n1Cc1ccccc1
i	-0.9	S=C(Nc1cccc2ccccc12)NN1CCOCC1
i	-0.02	COc1ccc(CCNC(=O)C2CCCN2S(=O)(=O)c2cccc3nsnc23)cc1OC (stereo not given)
i	-0.78	O=C(CC1COc2ccccc2O1)NCCc1ccccc1 (stereo not given)
i	-0.79	O=C(Nc1ccc2c(c1)CCC2)c1cc2ccccc2o1
i	-0.16	COc1ccc(NC(=O)c2cc(-c3cc(Cl)ccc3O)n[nH]2)c(OC)c1
i	-0.26	O=C(NCc1ccccn1)c1ccc(Cl)s1
i	0.26	COc1ccccc1Nc1nc2c(s1)CCC2
i	3.7	Cc1nn(C)c(C)c1CS(=O)(=O)c1ccccc1
i	1.02	CC(C)N(C(=S)Nc1cccnc1)c1ccccc1
i	0.7	Cc1cnc([N+](=O)[O-])n1CCOC(=O)c1cccc(F)c1
i	-0.01	O=C(C1=C(O)C(=O)N(Cc2ccco2)C1c1cccc(Cl)c1)c1ccco1 (stereo not given)
i	-0.76	Cc1cc(NS(=O)(=O)c2ccc(NC(=S)NC(=O)c3cccnc3)cc2)no1
i	-1.3	Cc1ccc(NC(=O)c2c(C)nn(-c3ccccc3)c2Cl)cc1
i	-1.51	CCOc1ccc(OCc2ccc(C(=O)Nc3cccc(C)n3)o2)cc1
i	1.18	Cc1cc(C)cc(C(=O)NCC(=O)OCC(=O)N(C)C2CCS(=O)(=O)C2)c1 (stereo not given)
i	-0.37	CCOC(=O)N1CCN(C(=O)C(C)c2ccc([N+](=O)[O-])cc2)CC1 (stereo not given)
i	-1.06	O=C(C1CCC(=O)N(C2CC2)C1)N1CCC(Oc2ccccc2F)CC1 (stereo not given)
i	0.05	Oc1cccc(Nc2nc(-c3ccccc3)nc3ccccc23)c1
i	1.25	COC(=O)c1ccccc1NC(=O)COc1ccc(S(=O)(=O)N2CCCC2)cc1C
i	-0.86	Cc1ccc(Oc2nc3ccccn3c(=O)c2/C=C(\C#N)C(=O)NC2CCS(=O)(=O)C2)c(C)c1 (stereo not given)
i	0.47	Cc1[nH]n(-c2ccccc2)c(=O)c1N=Nc1ccccc1C(=O)N1CCOCC1
i	0.07	Cc1ccc(-c2nnc(-c3cccs3)o2)cc1
i	0.07	O=C(CS(=O)(=O)c1cn(Cc2ccc(Cl)cc2)c2ccccc12)N1CCCCC1
i	-0.21	N#Cc1ccc(CSc2nnc(-c3ccccn3)n2-c2ccc(Cl)cc2)cc1
i	5.59	O=C(CCc1ccccc1)NNC(=O)c1ccccc1C(=O)O
i	0.06	CCOc1ccccc1NC(=O)C1CCN(S(=O)(=O)c2c(C)nn(C)c2C)CC1
i	2.19	Cc1nc(SCCOc2ccc(F)cc2)c2ccccc2n1
i	-0.89	CCOc1ccccc1OCCOCCOc1ccccc1[N+](=O)[O-]
i	-1.53	CCn1c(CN2CCN(C(c3ccccc3)c3ccccc3)CC2)nc2c1c(=O)n(C)c(=O)n2C
i	-0.3	COc1cc(CNC2CCCC2)cc(Cl)c1OCc1ccccc1F
i	-1.51	CCC(=O)N1CCc2cc(S(=O)(=O)NCCC(=O)NCc3ccccc3OC)ccc21
i	0.3	C=CCN(CC=C)C(=O)CN1C(=O)NC(Cc2c[nH]c3ccccc23)C1=O (stereo not given)
-5.88*	-0.54*	COc1ccc(CN(CC(O)COc2cccc3[nH]cc(C)c23)C(C)(C)C)cc1 (stereo not given)
i	-0.05	CCN(CC)CCn1c(NCc2ccc3c(c2)OCO3)nc2ccccc21
i	-1.11	CCCCn1c(=N)n(CC(=O)C(C)(C)C)c2ccccc21
i	-0.84	O=C(NCC1OCCCN1S(=O)(=O)c1cc(F)ccc1F)C(=O)NC1CCCCCC1 (stereo not given)
i	-0.82	COC(=O)CNC(c1ccccc1)c1cc(Br)ccc1NC(=O)CNC(=O)OCc1ccccc1 (stereo not given)
-6.66*	-0.17*	COc1ccc(CN(C(=O)c2ccco2)c2ccc(C)c(C)c2)cc1
i	0.04	CC(=O)c1ccc(N2CCN(S(=O)(=O)c3cccc4nsnc34)CC2)cc1
i	0.52	Cn1nccc1NC(=O)CC1(CC(=O)O)CCCCC1
i	0.26	NC(=S)N/N=C/c1c(O)c(Br)cc2oc3c(c12)CCCC3
i	4.33	CCN(CC)P(=O)(Nc1ccc([N+](=O)[O-])cc1)c1c(C)nn(CCC#N)c1NC(=O)c1ccc(Cl)cc1Cl (stereo not given)
i	-0.61	COc1ccccc1-c1nnc(SCC(=O)Nc2ccc(S(N)(=O)=O)cc2)n1C
i	0.02	O=C(NCCc1csc(-c2cccnc2)n1)c1cccc(Cl)c1
i	0.41	Cc1ccccc1N=Nc1c(N)n[nH]c1N

The list continues:
KCNQ2 block	KCNQ2 block baseline	structure
i	-0.39	O=C(CNC(=O)c1ccccc1F)Nc1ccncc1
i	-0.13	Cc1cccc(Cn2c(=O)n(-c3ccc(CC(=O)NCc4ccco4)cc3)c(=O)c3sccc32)c1
i	-1.46	Cc1cc(NS(=O)(=O)c2ccc(NC(=O)Nc3cccc(C(F)(F)F)c3)cc2)no1
i	0.56	CN(C)c1nc(N2CCN(c3ccccc3)CC2)c(C#N)c(=O)o1
i	1.27	FC(F)Oc1ccc(NC(=S)NC23CC4CC(CC(C4)C2)C3)cc1
i	-0.55	COc1ccc(CNC(=O)CN2C(=O)NC(C)(c3cccc(Br)c3)C2=O)cc1 (stereo not given)
i	1.69	CCCCN(Cc1ccco1)C(=O)Cn1ncc2c(=O)oc3ccc(C)cc3c21

An excerpt; count on the stated rates, not on these rows.
